Bioassay records from PubChem BioAssay.
KCNQ2 enhance: potentiators of rat KCNQ2 potassium channel | CHO-K1 KCNQ2, FluxOR thallium flux fluorescence; hits give high values | B-score at 10 µM | 0.54% of 310,000 active | AID 2239, 2010;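 active means fluorescence ratio B-score at least 3 SD of library B-scores, with initial fluorescence B-score within 3 SD, cut at about 5.3 in these data; same plate scores as AID 2156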;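 further: B-score of peak minus minimum over baseline fluorescence ratio after K+ and Tl+ stimulus; positive B-score means potentiation of KCNQ2 with more thallium influx and brighter signal; only the inactives scoring about 0 or higher are listed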
Target sequence (O88943 whole entry, looked up): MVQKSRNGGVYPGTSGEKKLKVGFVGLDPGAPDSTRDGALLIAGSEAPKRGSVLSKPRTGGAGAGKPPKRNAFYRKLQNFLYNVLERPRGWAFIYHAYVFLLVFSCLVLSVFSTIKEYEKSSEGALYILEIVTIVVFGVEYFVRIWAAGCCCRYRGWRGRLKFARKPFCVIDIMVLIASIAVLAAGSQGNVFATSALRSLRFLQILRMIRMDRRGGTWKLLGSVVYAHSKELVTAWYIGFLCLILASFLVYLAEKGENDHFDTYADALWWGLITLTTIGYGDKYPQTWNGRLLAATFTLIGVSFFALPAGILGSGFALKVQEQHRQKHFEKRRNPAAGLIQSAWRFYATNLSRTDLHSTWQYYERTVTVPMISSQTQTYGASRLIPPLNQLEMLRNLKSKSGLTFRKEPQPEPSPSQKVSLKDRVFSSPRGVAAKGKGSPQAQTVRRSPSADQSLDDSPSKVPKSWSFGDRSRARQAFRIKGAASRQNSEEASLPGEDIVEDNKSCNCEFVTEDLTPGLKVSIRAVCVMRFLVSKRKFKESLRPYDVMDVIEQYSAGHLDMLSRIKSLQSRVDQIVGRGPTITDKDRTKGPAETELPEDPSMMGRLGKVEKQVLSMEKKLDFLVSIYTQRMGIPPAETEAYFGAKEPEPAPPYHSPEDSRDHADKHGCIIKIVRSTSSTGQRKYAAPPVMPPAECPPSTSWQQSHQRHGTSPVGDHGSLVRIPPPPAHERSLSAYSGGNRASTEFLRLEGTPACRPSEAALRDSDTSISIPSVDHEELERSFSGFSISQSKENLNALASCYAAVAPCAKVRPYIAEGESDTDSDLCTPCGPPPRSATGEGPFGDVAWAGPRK
KCNQ2 enhance baseline: also measured in KCNQ2 enhance; calls as there; B-score; compound at 10 µM; measured here: initial fluorescence intensity artifact check;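 brightness before thallium and not channel activity; 0 = typical well and far values either way flag optical interference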
* = called active by the depositor. The list is partial; the hit share may differ from the screen's.

Start of the data: the first 14 entries (preview)
KCNQ2 enhance	KCNQ2 enhance baseline	canonical_smiles
0.5	2.34	COc1cc(C(=O)NCC2CCCN2S(=O)(=O)c2cccs2)cc(OC)c1OC (centres undefined)
0.87	-0.28	COC(=O)C1=C(CS(=O)(=O)c2ccc(OC)c(OC)c2)NC(=O)NC1c1ccc(O)c(OC)c1 (centres undefined)
0.03	0.75	CCc1c(C(=O)Nc2nnc(C3CC3)s2)csc1C
0.56	-0.31	CCC1=C(C)CN(C(=O)NCCc2ccc(S(=O)(=O)NC(=O)NC3CCC(C)CC3)cc2)C1=O (centres undefined)
0.35	2.6	COc1ccc(-n2c(SCC(=O)Nc3nccs3)nc3sc4c(c3c2=O)CCN(C)C4)cc1
0.12	-1.31	Cc1ccc(-n2nnnc2CN2CCCCC2)cc1
0.02	0.62	O=C(c1cc2ccccc2oc1=O)N(Cc1ccc(F)cc1)C1CCS(=O)(=O)C1 (centres undefined)
0.65	1.03	COc1ccc(NC(=O)CCCCn2c(=O)[nH]c3ccccc3c2=O)cc1
1.83	-0.93	N#Cc1cn(CC(=O)O)c2ccccc12
0.92	0.21	O=C(CSc1nc(O)c(C2CCCCC2)c(=O)[nH]1)Nc1ccc(F)cc1
1.8	-0.02	Cc1cccnc1NC(=O)c1ccc2c(c1)NC(=O)C(C)S2 (centres undefined)
0.82	0.1	CCC(C)n1cnc2c(=O)oc3ccccc3c21 (centres undefined)
0.6	-2.5	CCNC(=O)COC(=O)c1cc(S(=O)(=O)N2CCCc3ccccc32)ccc1Cl
1.1	0.76	Cc1ccc(CCNS(=O)(=O)c2cnc[nH]2)cc1

This part in full, previewed entries included:
KCNQ2 enhance	KCNQ2 enhance baseline	canonical_smiles
0.5	2.34	COc1cc(C(=O)NCC2CCCN2S(=O)(=O)c2cccs2)cc(OC)c1OC (centres undefined)
0.87	-0.28	COC(=O)C1=C(CS(=O)(=O)c2ccc(OC)c(OC)c2)NC(=O)NC1c1ccc(O)c(OC)c1 (centres undefined)
0.03	0.75	CCc1c(C(=O)Nc2nnc(C3CC3)s2)csc1C
0.56	-0.31	CCC1=C(C)CN(C(=O)NCCc2ccc(S(=O)(=O)NC(=O)NC3CCC(C)CC3)cc2)C1=O (centres undefined)
0.35	2.6	COc1ccc(-n2c(SCC(=O)Nc3nccs3)nc3sc4c(c3c2=O)CCN(C)C4)cc1
0.12	-1.31	Cc1ccc(-n2nnnc2CN2CCCCC2)cc1
0.02	0.62	O=C(c1cc2ccccc2oc1=O)N(Cc1ccc(F)cc1)C1CCS(=O)(=O)C1 (centres undefined)
0.65	1.03	COc1ccc(NC(=O)CCCCn2c(=O)[nH]c3ccccc3c2=O)cc1
1.83	-0.93	N#Cc1cn(CC(=O)O)c2ccccc12
0.92	0.21	O=C(CSc1nc(O)c(C2CCCCC2)c(=O)[nH]1)Nc1ccc(F)cc1
1.8	-0.02	Cc1cccnc1NC(=O)c1ccc2c(c1)NC(=O)C(C)S2 (centres undefined)
0.82	0.1	CCC(C)n1cnc2c(=O)oc3ccccc3c21 (centres undefined)
0.6	-2.5	CCNC(=O)COC(=O)c1cc(S(=O)(=O)N2CCCc3ccccc32)ccc1Cl
1.1	0.76	Cc1ccc(CCNS(=O)(=O)c2cnc[nH]2)cc1
0.72	-0.63	CCCN(CCC)c1nc(Cl)nc(NCc2ccco2)n1
0.57	-0.25	COc1ccc(NC(=O)N2CCN(C(=O)Nc3ccc(OC)cc3)CC2)cc1
0.24	-0.2	O=C(CSC(=S)N1CCOCC1)Nc1ccc(S(=O)(=O)Nc2ncccn2)cc1
0.29	-0.53	CCOC(=O)CCC(NC(=O)CCCCCCCC(=O)NC(CCC(=O)OCC)C(=O)OCC)C(=O)OCC (centres undefined)
1.86	-0.69	CC(C)(C)c1ccc(C(=O)NCCCNC(=O)c2cccnc2)cc1
0.37	-0.47	CC1CCc2nc(NC(=O)c3cc(C(C)(C)C)nn3C)sc2C1 (centres undefined)
0.51	0.06	CC1CC(C)CN(CCCNC(=O)Cc2c(C(=O)O)[nH]c3ccccc23)C1 (centres undefined)
0.15	-0.17	CCOc1ccc(CN2C(=O)c3ccccc3C2=O)cc1C(=O)O
0.03	0.12	O=C(CCCCCCN1C(=O)c2ccccc2C1=O)NC1CCCCC1
1.14	0.02	O=C(COC(=O)c1cccc(F)c1)NC1CC1
1.52	1.49	CCc1c(O)nc(SCC(=O)Nc2ccccc2C)[nH]c1=O
0.07	0.01	CN(Cc1ccccc1)S(=O)(=O)c1ccc(N2CCOCC2)nc1
0.11	0.42	CC(C)(C)n1nnnc1C(c1cccc(C(F)(F)F)c1)N1CCOCC1 (centres undefined)
1.61	0.82	Cc1ccc(S(=O)(=O)NCCC(=O)N2CCN(S(=O)(=O)c3cccc(F)c3)CC2)cc1C
0.96	0.52	CCc1ccc(NC(=O)NCc2ccccn2)cc1
2.29	-0.92	COc1ccc(N(CC(=O)Nc2ccccc2SC)S(C)(=O)=O)cc1OC
0.05	1.66	CC(C)(C)c1ccc(C(=O)Nc2ccc(CN3CCS(=O)(=O)CC3)cc2)cc1
0.25	1.54	O=c1cc(/C=C/c2c(F)cccc2Cl)[nH]c2ccccc12
1.82	0.58	CCCCn1c(=O)[nH]c(=O)c2c1nc(-c1ccccn1)n2CC
0.32	-0.04	Nc1ccc(C#Cc2ccc3sc4ccccc4c(=O)c3c2)cc1
0.78	-0.33	CCOC(=O)NC(NC(=S)Nc1ccc(OC)cc1)C(Cl)(Cl)Cl (centres undefined)
1.24	-0.79	CCCCCCCCCCS(=O)(=O)N/N=C/c1ccccc1OC
0.02	-0.27	O=C1NC(c2ccccc2)=NC1(NS(=O)(=O)c1ccc(Cl)cc1)C(F)(F)F (centres undefined)
0.54	-0.03	COc1ccc(CN2CCNC(=O)C2CC(=O)N2CCc3ccccc3C2)c(OC)c1 (centres undefined)
2.92	-1.38	CCc1ccc(NC(=O)C(C)OC(=O)/C=C/c2cccc([N+](=O)[O-])c2)cc1 (centres undefined)
1.74	-0.86	COc1ccc(NC(=O)C2CCCN2S(=O)(=O)c2ccc(F)cc2)cc1 (centres undefined)
0.96	1.81	COc1ccc(S(=O)(=O)N2CCOCC2)cc1NC(=O)CSc1ccccc1
0.3	-0.97	Fc1cccc(Nc2nc3ccccc3n3cnnc23)c1
1.47	-0.07	CC(O/N=C\c1ccccc1O)C(=O)Nc1ccccc1C(=O)N1CCOCC1 (centres undefined)
0.69	-2.11	S=C(NCc1ccc(Cl)cc1)NCc1ccco1
0.91	-0.05	Cc1cc(NC(=O)CCC(=O)N(Cc2ccco2)C(C(=O)NC2CCCCC2)c2cccs2)no1 (centres undefined)
1.3	-0.67	O=C(CSc1ccsc1[N+](=O)[O-])NCc1ccco1
0.02	-0.02	O=C(CN(Cc1ccccc1)S(=O)(=O)c1ccccc1)N/N=C/c1ccccc1C(=O)O
2.34	-0.51	CC(=O)CCN1CCOCC1
1.48	-2.93	O=C(NCc1n[nH]c(=S)n1-c1ccccc1)c1ccc(S(=O)(=O)N2CCCCC2)cc1
1.3	0.05	Cc1cc(C)c2cc(C(c3nnnn3CC3CCCO3)N3CCN4CCCC4C3)c(=O)[nH]c2c1 (centres undefined)

Single records, as listed above. Order of screens: KCNQ2 enhance	KCNQ2 enhance baseline
Profile of Fc1cccc(Nc2nc3ccccc3n3cnnc23)c1 = 0.3	-0.97
Profile of CC(O/N=C\c1ccccc1O)C(=O)Nc1ccccc1C(=O)N1CCOCC1 (centres undefined) = 1.47	-0.07

Carrying on.
KCNQ2 enhance	KCNQ2 enhance baseline	canonical_smiles
2.54	-3.22	COc1ccc2c(c1OC)C(=O)N(c1ccc(C)cc1)C2=O
0.16	0.04	CNC(=O)C(=O)N/N=C/c1ccc(Br)cc1
1.23	1.31	Cc1cc(C)c2c(=O)n(CC(=O)Nc3cccc(Cl)c3C)sc2n1
1.62	1.92	COc1ccc(-n2c(C)cc(C(=O)COC(=O)c3cc(NC(=O)c4cccs4)c(OC)c(OC)c3)c2C)cc1
2.19	-0.12	N#C/C=C(/N)c1ccc(Br)cc1
1.16	0.11	CC(C)c1nc(CNC(=O)C2CCC(=O)N(Cc3ccc(Cl)cc3)C2)no1 (centres undefined)
0.06	0.08	COc1ccc(N2CCCn3c2nc2c3c(=O)n(CCc3ccccc3)c(=O)n2C)cc1
0.34	-0.56	CC(C(=O)O)N1C(=O)CSC1=S (centres undefined)
0.91	0.85	CCC(=O)NCCSc1c[nH]c2ccccc12
0.47	2.41	Cc1cccc(C)c1Nc1c(-c2ccsc2)nc2ncccn12
0.21	-0.22	CC(C)(C)C(=O)NNC(=O)C1CC1(c1ccccc1)c1ccccc1 (centres undefined)
0.04	-0.03	O=C1c2cc([N+](=O)[O-])cc3cc([N+](=O)[O-])cc(c23)C(=O)N1c1ccccn1
3.1	1.84	Cc1ccc(C(=O)NC(C)c2ccc3c(c2)OCO3)s1 (centres undefined)
1.27	1.67	CCOc1ccccc1Nc1ccc(C(=O)O)cc1[N+](=O)[O-]
1.04	-0.28	CS/C(=C\[N+](=O)[O-])Nc1ccc(F)cc1
1.69	2	COc1cc(C(C2C(=O)CC(C)(C)CC2=O)C2C(=O)CC(C)(C)CC2=O)ccc1OC(C)=O
1.23	1.41	Cc1cc2ncc(C(=O)N=CN(C)C)cn2n1
1.27	-0.09	CCOc1ccc(-n2c(C)c(C(C)=O)c3cc(OCC(N)=O)ccc32)cc1
1.29	0.6	Cn1c(=O)cc(OCCCC(=O)NC2CCCC2)c2ccccc21
0.2	1.32	Cc1cc(=O)oc2cc(OCC(=O)c3ccccc3)ccc12
1.39	1.13	COC(=O)CSc1nc2sc3c(c2c(=O)[nH]1)CCC3
3.9	-3.34	CC1CCN(c2ccc(NC(=S)NC(=O)c3ccco3)cc2)CC1
0.22	1.25	O=c1[nH]c(CCl)nc2cc(-c3ccc(F)cc3)sc12
1.47	-2.05	COc1cc2nc(CCc3ccccc3)oc(=O)c2cc1OC
0.01	-0.35	COc1ccc(CNC(=O)CC(NC(N)=O)c2ccccc2Cl)cc1OC (centres undefined)
2.54	-0.07	CC(=O)Nc1ccc(NC(=O)c2ccc(CN3CCc4ccccc4C3)cc2)cc1
1.07	-0.02	O=C(c1cc2ccccc2oc1=O)N(Cc1ccco1)CC1CCCO1 (centres undefined)
1.72	-0.29	CCn1c(SCC(=O)Nc2ccc(Br)cc2)nc2sc3c(c2c1=O)CCN(C)C3
4.22	-0.78	CCCCOc1ccc(C(=O)N/N=C/c2ccc(OCCN3CCCCC3)c(OC)c2)cc1
0.28	0.18	CCS(=O)(=O)c1ccc2c(c1)N(S(=O)(=O)c1cccs1)CC(C(=O)O)O2 (centres undefined)
0.39	0.05	CC1CCCC(NC(=O)CCNS(=O)(=O)c2ccc(Br)cc2)C1C (centres undefined)
2.17	-0.11	Cn1cc(P(=S)(N2CCOCC2)N2CCOCC2)cc1P(=O)(N1CCOCC1)N1CCOCC1
1.55	-0.18	CCN(CC)CC(O)Cn1c2ccccc2c2ccccc21 (centres undefined)
0.03	-0.08	Clc1ccccc1-c1nnc2sc(-c3ccco3)nn12
0.33	0.26	Cc1ccc(/C(N)=N/OC(=O)CCCc2ccccc2)cc1
0.5	0.03	O=S(=O)(c1ccccc1)c1nc(-c2ccccc2)oc1NCc1cccnc1
0.29	1.68	O=C(COC(=O)COc1ccccc1)Nc1ccc(S(=O)(=O)N2CCOCC2)cc1
0.79	0.24	Cc1ccc(-c2ccc3c(c2)S(=O)(=O)c2ccccc2C3=O)cc1
0.7	-0.14	CC(/C=N/NC(=O)c1ccncc1)=C\c1ccco1
0.95	0.73	CCn1cc(C(=O)NCCN(C)CCc2ccccc2)c(=O)c2cc(S(=O)(=O)N(C)C)ccc21
0.98	-0.43	O=C(Nc1ccc2c(c1)OCO2)C1CCCCC1
0.64	1.13	CC1(C)Cc2c(c(N3CCOCC3)nc3sc4c(=O)[nH]cnc4c23)CS1
2.69	-0.01	Cc1cc(C)c2c(=O)n(CC(=O)NCCCN3CCOCC3)sc2n1
2.05	0.75	Cc1cc(C)nc(NC(=O)c2cc([N+](=O)[O-])cc([N+](=O)[O-])c2)n1
1.38	1.33	CCOC(=O)C1CCCN(CCc2ccccc2)C1 (centres undefined)
0.26	0.3	O=C1/C(=C/c2ccncc2)CCc2ccccc21
0.56	0.05	Cc1cc(C)cc(CC2CC(=O)N(c3ccc4c(c3)OCCO4)C2=O)c1 (centres undefined)
1.54	-0.93	CN(CC(=O)N1CCN(Cc2ccccc2)CC1)S(=O)(=O)c1ccc(Br)cc1
0.73	0.15	O=C(Cn1c(=O)n(CCCCC(=O)NC2CCCC2)c(=O)c2ccccc21)NCCC1=CCCCC1
0.09	0.22	Cc1nc(CSc2nnc3scc(-c4ccc(Cl)cc4)n23)cs1

The list continues:
KCNQ2 enhance	KCNQ2 enhance baseline	canonical_smiles
1.04	-0.12	c1cncc(-c2nnc(C3CCCCC3)o2)c1
0.11	-1.21	CCCCNCCOCCOc1ccc(C)cc1Br
0.57	1.18	Cc1nc(-n2[nH]c3c(c2=O)CCCC3)[nH]c(=O)c1Cc1ccccc1
1.95	0.68	CC(C)/C=C1\CCc2c([nH]c3ccccc23)C1=O
2.43	1.02	Cc1ccc(Nc2nnc(-c3ccccc3N)o2)cc1C
1.13	1.87	Cc1ccc(S(=O)(=O)Nc2cc(-c3ccc(Cl)cc3)nn2C)cc1
1.97	1.03	Cc1ccc2cc(C)c3nnc(SCc4ccc(C(=O)O)cc4)n3c2c1C
0.03	1.27	O=C(NC1CCCCC1)C1CC(O)CN1C(=O)OCc1ccccc1 (centres undefined)
0.49	-1.27	O=C(NNc1ccccc1Br)C(=O)n1ccc2ccccc21
0.15	0.04	Cc1nc(C)c(-c2csc(Nc3ccc(O)cc3C)n2)s1
